YopH PTP inh = blocks Yersinia enterocolitica YopH tyrosine phosphatase | fluorescence Ex485/Em525 | inhibition, %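 (about 10 µM by stock and volumes)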 | 0.16% of 140,000 active;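 active means inhibition of 50% or more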;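 further: controls were vehicle for no effect and minimum signal wells for full effect; inactives centre near -20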
RecA intein inh = inhibitors of M. tuberculosis RecA intein splicing; AID 2221; inhibition, %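 (about 9 µM by stock and volumes)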; 0.75% of 290,000 active; P9WHJ3; cell-free RecA intein splicing, fluorescence; in the data active means inhibition above about 30%; inconclusive means no clear call, values can overlap the other calls;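 further: 0% = vehicle wells and 100% = reference inhibitor control wells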
Target sequence (P9WHJ3 whole entry, looked up): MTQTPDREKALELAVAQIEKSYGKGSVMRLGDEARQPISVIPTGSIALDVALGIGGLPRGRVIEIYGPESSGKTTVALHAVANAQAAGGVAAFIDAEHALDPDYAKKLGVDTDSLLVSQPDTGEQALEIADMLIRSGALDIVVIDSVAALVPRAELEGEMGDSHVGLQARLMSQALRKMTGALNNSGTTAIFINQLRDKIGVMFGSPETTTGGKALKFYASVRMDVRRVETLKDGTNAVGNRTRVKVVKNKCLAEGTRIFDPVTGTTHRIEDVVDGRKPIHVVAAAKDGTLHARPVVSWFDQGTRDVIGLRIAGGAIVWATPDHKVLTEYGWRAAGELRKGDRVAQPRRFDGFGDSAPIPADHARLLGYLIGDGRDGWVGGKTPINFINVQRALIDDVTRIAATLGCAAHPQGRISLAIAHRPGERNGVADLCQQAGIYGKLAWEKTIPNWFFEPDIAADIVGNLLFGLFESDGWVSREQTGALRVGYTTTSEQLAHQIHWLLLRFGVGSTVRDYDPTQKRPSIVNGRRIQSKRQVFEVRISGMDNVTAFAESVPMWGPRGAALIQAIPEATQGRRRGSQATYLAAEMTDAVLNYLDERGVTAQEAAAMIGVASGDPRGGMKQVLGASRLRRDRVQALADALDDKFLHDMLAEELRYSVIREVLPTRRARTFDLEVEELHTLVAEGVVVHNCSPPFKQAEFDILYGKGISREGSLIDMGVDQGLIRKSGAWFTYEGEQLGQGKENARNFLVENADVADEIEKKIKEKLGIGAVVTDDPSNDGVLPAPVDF
Mtb growth = M. tuberculosis H37Rv growth inhibitors, H37Rv strain (AID 1626); M. tuberculosis H37Rv growth inhibition; higher % means a stronger effect; inhibition, % at 10 µM; hits with a dose series show IC50 in µM; 0.95% of 220,000 active;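 active means confirmed in a dose series; inconclusive means inhibition above 80% but not taken into the dose series; inactive means below 80% or under 30% at every dose of the series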;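 further: bacteria incubated seven days before Alamar blue readout; 0% = bacteria only wells and 100% = bacteria with antibiotic wells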
Mtb bLac sens = beta-lactam sensitization of Mtb H37Rv | M. tuberculosis H37Rv growth with meropenem, percent inhibition; hits of this screen are not shown here | inhibition, % at 25 µM | 0.27% of 330,000 active | AID 434955;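 active means about 74% or more and at least 40 points above the plate without the antibiotic, then above 30% in a dose series; inconclusive means first-round hits that could not be retested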;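 further: growth measured after seven days incubation then overnight dye step; 0% = bacteria only wells and 100% = bacteria with antibiotic; twin plates without the antibiotic show which effects depend on it; some results filed as inactive read as strong as hits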
Arbovirus inh = blocks arbovirus infection | arbovirus infection cell-based antiviral screen | inhibition, % at 10 µM | 0.37% of 200,000 active;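 active means inhibition from about 30%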;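 further: bluetongue infection of BSR cells; cell survival read as ATP light after 72 h; 0% = infected wells without compound and 100% = uninfected wells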
Starred values were filed as active, the others as inactive; ? = inconclusive; · = not tested or not shown. Not all compounds are listed; rates above refer to the full screens.

structure	YopH PTP inh	Mtb bLac sens	Arbovirus inh	Mtb growth	RecA intein inh
O=C(NC1CCCC1)C(c1ccncc1)N(Cc1ccco1)C(=O)c1ccc(-c2ccccc2)[nH]1 (stereo unspecified)	·	10	-22	2%	10
C[C@@]12CCC=C[C@H]1[C@H](c1ccc3ccccc3c1/C=C/c1ccccc1)N(Cc1ccccc1)C2=O	·	-7	·	27%	-0.9
Cc1cccc(C(=O)Nc2cc(OCc3cccc(F)c3)c(Cl)cc2Cl)c1	-45	5	0	3%	0.2
CC1(C)Oc2ccc3ccc(=O)oc3c2/C(=C/Nc2ccc(O)cc2)C1=O	·	-2	-7	30%	1.9
O=c1[nH]c(=S)[nH]c(O)c1CN1CCCCC1	-38	8	1	-7%	-4.6
O=C(NCCc1cccs1)C1CC1	·	-3	·	-8%	-3.0
COc1c(O)ccc(/C=C(\C#N)c2nc3ccccc3[nH]2)c1[N+](=O)[O-]	-24	4	14	8%	-2.9
COc1ccc(CC(=O)N/N=C(\C)c2ccccn2)cc1	-8	56	-34	6%	1.1
CC(C)(C)n1nc2c(c1NC(=O)c1ccccc1C(F)(F)F)CS(=O)(=O)C2	·	-11	·	·	2.6
CC(=O)c1c(C)oc2c1cc(O)c1ccccc12	·	4	·	6%	0.0
COc1ccc(Cn2c(C)nc3c(c(=O)c4ccccc4n3C)c2=O)cc1	·	92	·	20%	1.3
O=C(COC(=O)CNS(=O)(=O)c1cccc(Br)c1)NC(=O)Nc1ccc2c(c1)OCCO2	-33	-5	0	78%	·
COc1ccc(NS(=O)(=O)c2ccc(Cl)s2)cn1	·	0	·	-5%	1.6
O=Cc1coc2c(ccc3ccccc32)c1=O	·	1	·	·	-4.7
O=C(Nc1cccc(F)c1)C1CCCN(c2cnccn2)C1 (stereo unspecified)	·	2	·	·	-0.3
COc1ccc(OC)c(CCNC(=O)Cc2ccc(NC3=NC4CS(=O)(=O)CC4S3)cc2)c1 (stereo unspecified)	·	-6	·	·	1.2
Clc1ccc(-c2nnc3n2CCCS3)cc1	-22	-12	2	-10%	1.2
OC[C@H]1OC(Nc2ccc(N=Nc3ccccc3)cc2)[C@@H](O)[C@@H](O)[C@@H]1O (stereo partly specified)	·	88	·	?	9.1
Nc1nc(NCCO)nc(NCC2CCCO2)c1[N+](=O)[O-] (stereo unspecified)	-25	2	-2	0%	0.0
Cn1c(N/N=C2\CCCc3ccccc32)nc2c1c(=O)n(Cc1ccc(F)cc1)c(=O)n2C	-21	·	-1	-1%	1.4
NC(CSCc1cccc(Br)c1)C(=O)O (stereo unspecified)	·	2	-7	-4%	1.8
O=[N+]([O-])c1cc(F)c(N2CCOCC2)cc1N1CCCCC1	-29	6	-1	0%	0.4
Cc1cc(C)c(C#N)c(SCC(O)COc2ccc(Br)cc2)n1 (stereo unspecified)	·	6	·	·	6.1
N#CCc1cnc2ccccc2n1	·	6	·	-17%	2.6
O=C1CN2CCC1C/C2=C\c1ccnc2c(Cl)cccc12 (stereo unspecified)	·	6	·	2%	1.4
C(=C\c1ccco1)/c1nc2ccccc2[nH]1	·	4	-18	-4%	-4.6
CN(CCO)CCOCCOc1cccc2ccccc12	·	0	-2	4%	-2.0
O=C(CSc1ccccc1C(=O)N1CCCCC1)NCC1CCCCC1	·	-27	·	·	-3.3
CCN(CC)C(=S)SCC(=O)Nc1nc(=O)c2ccccc2s1	-23	5	-5	8%	0.1
Clc1ccc2nc(-c3ccccc3)c(CN3CCOCC3)n2c1	-27	10	11	-3%	3.5

In the list so far, three contain two or more sulfur atoms.
structure	YopH PTP inh	Mtb bLac sens	Arbovirus inh	Mtb growth	RecA intein inh
COc1ccc(NS(=O)(=O)c2ccc(Cl)s2)cn1	·	0	·	-5%	1.6
COc1ccc(OC)c(CCNC(=O)Cc2ccc(NC3=NC4CS(=O)(=O)CC4S3)cc2)c1 (stereo unspecified)	·	-6	·	·	1.2
CCN(CC)C(=S)SCC(=O)Nc1nc(=O)c2ccccc2s1	-23	5	-5	8%	0.1

Back to the main list with the 2 entries that preceded the break.
structure	YopH PTP inh	Mtb bLac sens	Arbovirus inh	Mtb growth	RecA intein inh
CCN(CC)C(=S)SCC(=O)Nc1nc(=O)c2ccccc2s1	-23	5	-5	8%	0.1
Clc1ccc2nc(-c3ccccc3)c(CN3CCOCC3)n2c1	-27	10	11	-3%	3.5
O=C(COc1ccc(Cl)cc1Cl)N/N=C/c1ccc(OC2OC(CO)C(O)C(O)C2O)cc1 (stereo unspecified)	·	-7	·	-8%	11
Clc1ccc(C(c2nnnn2C2CCCCC2)N(Cc2cccnc2)Cc2ccco2)cc1 (stereo unspecified)	-25	·	-17	6%	0.7
Nc1[nH]ncc1S(=O)(=O)c1ccccc1	·	-3	·	·	-0.4
O=C(c1ccc(S(=O)(=O)Nc2ccccc2)cc1)N1CCC1	·	-3	·	·	-2.5
CCOC(=O)NC(Nc1ccc(S(N)(=O)=O)cc1)(C(=O)OCC)C(F)(F)F (stereo unspecified)	-6	-3	9	-8%	6.0
C=CCn1c(SCC(N)=O)nnc1-c1cc(Br)ccc1O	-68	-6	0	-5%	1.0
S=C(NCc1ccccc1)N1CCc2ccccc2C1	·	2	3	4%	4.1
CCOCCCNC(=O)Cn1cnc2sc(C)c(S(=O)(=O)N3CCN(c4ncccn4)CC3)c2c1=O	·	8	3	5%	0.0
CCCN(CC(=O)Nc1ccccc1OC)C(=O)c1cccc(S(=O)(=O)Nc2ccc(OC)cc2)c1	·	-8	·	·	1.5
Cc1ccc(S(=O)(=O)Nc2ccc3c(c2)n(C)c(=O)n3C)c(C)c1	·	9	-3	7%	-1.0
O=C(O)CCCC(=O)N1CCN(c2ncccn2)CC1	·	2	·	-8%	·
CN(C(=O)Oc1ccc(C(C)(C)C)cc1)c1ccccc1	·	2	3	1%	4.8
CCn1c(SCC(=O)Nc2ccccc2)nnc1-c1cccs1	·	-5	·	·	-0.6
CCN(CC(=O)N1CCOCC1)S(=O)(=O)c1cc(Cl)ccc1Cl	·	-12	·	·	-2.1
COc1cc(NS(=O)(=O)c2ccc(N/C=C\C(=O)c3ccc(C)cc3)cc2)nc(OC)n1	-20	61	·	9%	-51
CC1CCc2c(sc3ncn(CC(=O)N=Nc4c(O)[nH]c5ccccc45)c(=O)c23)C1 (stereo unspecified)	·	41	·	8%	-2.4
COc1ccc(C2SCC(=O)Nc3c2c(C)nn3C2CCOC(C)(C)C2)cc1 (stereo unspecified)	-21	-10	0	4%	-0.8
COc1ccc(CN2C(=O)[C@@H]3Cc4c([nH]c5ccccc45)C(C)(C)N3C2=O)cc1	·	92	·	19%	3.4
Cc1ccc(S(=O)(=O)N2CCC(C(=O)NCCN3CCOCC3)CC2)cc1C	·	0	·	·	-5.2
COc1ccc(NC(=O)c2ccc3c(c2)OCCO3)cc1OC	·	-2	·	·	0.2
C/C=C/c1ccc(OCC(=O)Nc2ccncc2)c(OC)c1	·	91	·	·	0.7
NC(=O)NC(c1ccccc1)c1cccc2ccccc12 (stereo unspecified)	7	5	4	1%	2.9
COc1cc2c(cc1OC)C(C1(O)CCCCC1)NCC2 (stereo unspecified)	·	2	·	3%	3.6
C#CCOCCOCCOCCNc1nc(N2CCN(C(=O)Cn3cc(CCCCN)nn3)CC2)nc(N2CCN(C(=O)Cn3cc(CC(C)O)nn3)CC2)n1 (stereo unspecified)	-23	-12	11	-4%	-1.5
Cc1csc(NC(=O)CCC(=O)N(CC(=O)NC2CCCCC2)c2ccccc2)n1	·	7	·	·	-0.8
Cn1c(=O)c2c(nc(NNC(=O)C(F)(F)F)n2C)n(C)c1=O	·	-10	2	1%	-8.1
COc1ccc(CC2(CCc3ccncc3)C(=O)NC(=O)NC2=O)cc1OC	·	1	7	1%	·
O=C1C2C3CCC(C3)C2C(=O)N1Cc1ccco1 (stereo unspecified)	-28	4	3	-2%	-3.5
COCCCN=Cc1c(C)[nH]n(-c2ccc(Br)c(C)c2)c1=O	-37	0	-11	5%	-1.0
O=C(CP(=O)(c1ccccc1)c1ccccc1)Nc1cccc(CP(=O)(c2ccccc2)c2ccccc2)c1	·	-7	·	-4%	2.1
CCOC(=O)C1CCN(C(=O)CSc2nc3ncccc3[nH]2)CC1	·	-3	·	·	0.6
CCOC(=O)c1ccccc1NC(=O)CN1C(=O)NC(C)(CCc2ccccc2)C1=O (stereo unspecified)	·	-2	·	·	-4.0
N#C/C(=C\c1ccc(C#N)cc1)C(=O)N1CCCC1	·	-3	9	-5%	1.5
CSCC[C@H](NC(=O)c1ccc(Cl)c([N+](=O)[O-])c1)c1nc2ccccc2[nH]1	-19	-2	-30	9%	2.9
CC(=O)N1CCC(=NNc2ccnc3cc(Cl)ccc23)CC1	·	1	5	8%	-1.4
O=C(N/N=C/c1c(O)ccc2ccccc12)c1cccc(C(F)(F)F)c1	-1	13	-28	17%	-58
COc1ccc(N2CCN(C(=O)CCNS(=O)(=O)c3ccc(C)cc3)CC2)cc1	·	-7	·	·	-3.1
COc1ccccc1/C=N/NC(=O)c1nnn(-c2nonc2N)c1-c1ccccc1	·	-14	·	·	-6.3
COc1ccc(-c2nc(CS(=O)CC(=O)NC3CCCCC3C)c(C)o2)cc1 (stereo unspecified)	·	1	·	·	0.8
CCCOc1ccc(-c2nn(-c3ccccc3)cc2/C=C2\SC(N)=NC2=O)cc1	-6	6	-9	0%	-1.9
O=C(CCC(=O)N1CCSc2ccccc21)Nc1cccc(F)c1	·	-12	·	·	0.3
Cc1ccc(Nc2nc(N)c3ccccc3n2)cc1C	·	10	·	·	2.9

Complete entries as entered above. Order of screens: YopH PTP inh	Mtb bLac sens	Arbovirus inh	Mtb growth	RecA intein inh
COc1ccc(Cn2c(C)nc3c(c(=O)c4ccccc4n3C)c2=O)cc1 across the screens: ·	92	·	20%	1.3
Nc1nc(NCCO)nc(NCC2CCCO2)c1[N+](=O)[O-] (stereo unspecified) across the screens: -25	2	-2	0%	0.0
COc1ccccc1/C=N/NC(=O)c1nnn(-c2nonc2N)c1-c1ccccc1 across the screens: ·	-14	·	·	-6.3
COc1ccc(CC(=O)N/N=C(\C)c2ccccn2)cc1 across the screens: -8	56	-34	6%	1.1

Arranged by SMILES length (smallest number first): 6 of the compounds above.
structure	YopH PTP inh	Mtb bLac sens	Arbovirus inh	Mtb growth	RecA intein inh
Cc1ccc(Nc2nc(N)c3ccccc3n2)cc1C	·	10	·	·	2.9
CC(=O)N1CCC(=NNc2ccnc3cc(Cl)ccc23)CC1	·	1	5	8%	-1.4
CCOC(=O)C1CCN(C(=O)CSc2nc3ncccc3[nH]2)CC1	·	-3	·	·	0.6
COc1ccc(-c2nc(CS(=O)CC(=O)NC3CCCCC3C)c(C)o2)cc1 (stereo unspecified)	·	1	·	·	0.8
COc1ccc(N2CCN(C(=O)CCNS(=O)(=O)c3ccc(C)cc3)CC2)cc1	·	-7	·	·	-3.1
CSCC[C@H](NC(=O)c1ccc(Cl)c([N+](=O)[O-])c1)c1nc2ccccc2[nH]1	-19	-2	-30	9%	2.9

Bioassay records (PubChem)
